Screening data as filed in PubChem.
aGlu spleen mod: inhibitors or activators of human alpha-glucosidase in spleen homogenate; actives 0.006% (n = 240,000); human spleen homogenate, 4-MU-alpha-glucoside fluorescence; Potency, µM (doses to about 79.9 µM), without a hit: at the highest dose activity change, negative = inhibition, most hits filed as inhibitors; P10253; AID 2112;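 further: 0% = enzyme with vehicle and -100% = no enzyme basal signal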
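Compounds were titrated against alpha-glucosidase in spleen homogenate at pH 5.0, with 1 mM 4-methylumbelliferyl substrate for 40 min at 37 C. Reactions were quenched with pH 10 NaOH/glycine and fluorescence measured.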
GAA glycogen: inhibitors or activators of human alpha-glucosidase glycogen cleavage | P10253 | recombinant GAA, glycogen substrate, Amplex Red glucose oxidase fluorescence | Potency, µM (series often up to 76.4 µM), for inactives: top-dose activity change, negative = inhibition, usual class: inhibitors | actives 0.38% (n = 300,000) | AID 2100;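 further: 0% = full enzyme reaction and -100% = no-enzyme basal signal; the screen sought inhibitors and activators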
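Natural-substrate format: glycogen cleavage by 4 nM human enzyme, glucose read by Amplex Red coupling (Ex 573, Em 610 nm). Normalized to enzyme and no-enzyme controls.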
KDM4E inh: blocks human JMJD2E demethylase activity. B2RXH2. JMJD2E catalytic domain, FDH-coupled NADH fluorescence (FDH is formaldehyde dehydrogenase). Potency, µM (top dose mostly 57.1 µM), for the others: at the top dose activity change, negative = inhibition, actives largely listed as inhibitors. actives 1.6% (n = 230,000). AID 2147; active means well fitted inhibition curve with a large enough effect, not every such curve was filed as active; inconclusive means small, poorly fitted or top-dose-only effect, or another doubt; inactive means no such curve, though single readings can be large or run the other way;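 further: 0% = wells with enzyme and -100% = buffer wells without enzyme; nearly all actives have a fitted effect of over 50% in size; many of its hits are not listed in these tables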
Target sequence (B2RXH2 1-337 limits assumed): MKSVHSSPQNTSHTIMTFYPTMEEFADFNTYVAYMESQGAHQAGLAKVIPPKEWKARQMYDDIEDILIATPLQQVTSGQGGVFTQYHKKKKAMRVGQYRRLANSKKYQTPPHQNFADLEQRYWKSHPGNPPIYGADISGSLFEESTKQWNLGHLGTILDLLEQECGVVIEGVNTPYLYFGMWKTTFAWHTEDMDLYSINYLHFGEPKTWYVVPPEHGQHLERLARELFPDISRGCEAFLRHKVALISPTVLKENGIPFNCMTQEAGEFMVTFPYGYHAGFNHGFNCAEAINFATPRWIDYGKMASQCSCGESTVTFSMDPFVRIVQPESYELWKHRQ
GAA inhib: alpha-glucosidase (human) inhibition. purified human GAA, 4-MU-alpha-glucoside fluorescence. Potency, µM (titrated, usually from 76.9 µM), for inactives: top-dose activity change, negative = inhibition, most hits filed as inhibitors. actives 0.005% (n = 200,000). AID 1466;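 further: plate controls were uninhibited enzyme wells for no effect and no-enzyme background for full effect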
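AC50 values come from Hill fits of compound titrations (up to 77 uM) against 4 nM human enzyme. Substrate 4-methylumbelliferyl-alpha-D-pyranoside at 400 uM, pH 5.0 citrate buffer, 20 min room temperature; fluorescence Ex 365/Em 440 after alkaline stop.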
GLA spleen mod: inhibits or activates alpha-galactosidase in human spleen homogenate. human spleen homogenate, 4MU-alpha-Gal fluorescence, 40 min. AID 2107. Potency, µM (top dose mostly 80 µM), without a hit: at the top dose activity change, negative = inhibition, actives largely listed as inhibitors. actives 0.008% (n = 240,000). P06280;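 further: 0% = enzyme with vehicle and -100% = no enzyme basal signal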
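Human spleen homogenate (1 ug) was the enzyme source, with 4-methylumbelliferyl-alpha-D-galactopyranoside (1 mM final) in pH 5.0 citrate buffer with 0.01% Tween-20. Compounds were titrated; after 40 min at 37C, NaOH/glycine stop, 4-MU fluorescence read; AC50 from Hill fits.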
ALDH1A1 inh: inhibitors of human aldehyde dehydrogenase 1A1; P00352; Purified ALDH1A1, NADH fluorescence, propionaldehyde substrate; Potency, µM (doses to about 75.3 µM), without a hit: at the top dose activity, negative = inhibition, hits mostly inhibitors; actives 7.3% (n = 220,000); active means well fitted inhibition curve with a large enough effect, not every such curve was filed as active; inconclusive means small, poorly fitted or top-dose-only effect, or another doubt; inactive means no such curve, though single readings can be large or run the other way;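 further: plate controls were no enzyme wells and a reference inhibitor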
Target sequence (P00352 whole entry, looked up): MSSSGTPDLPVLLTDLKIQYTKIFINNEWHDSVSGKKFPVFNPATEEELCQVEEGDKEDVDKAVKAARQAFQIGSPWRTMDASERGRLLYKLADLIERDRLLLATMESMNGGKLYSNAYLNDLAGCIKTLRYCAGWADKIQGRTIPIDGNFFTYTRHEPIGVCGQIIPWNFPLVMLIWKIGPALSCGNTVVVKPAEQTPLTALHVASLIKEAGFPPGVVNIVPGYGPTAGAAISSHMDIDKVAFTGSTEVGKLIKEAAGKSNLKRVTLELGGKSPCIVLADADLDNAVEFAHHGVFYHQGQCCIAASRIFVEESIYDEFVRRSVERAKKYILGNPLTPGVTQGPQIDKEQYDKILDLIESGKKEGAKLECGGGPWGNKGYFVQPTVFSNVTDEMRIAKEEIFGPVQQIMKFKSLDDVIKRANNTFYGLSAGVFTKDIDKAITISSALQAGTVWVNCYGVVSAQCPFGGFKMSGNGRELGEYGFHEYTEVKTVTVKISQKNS
SMN2 splice enh: increases expression of the SMN2 splice variant; HEK293 SMN2-luciferase splicing reporter, luminescence, 30-36 h; Potency, µM (titrated, usually from 46.1 µM), without a hit: at the highest dose activity change, positive = activation, actives largely listed as activators; actives 2.8% (n = 210,000); AID 1458; further: % of control where 0% means no effect; nearly all actives have a fitted effect of over 55% in size
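qHTS luciferase splicing reporter: luminescence rises when SMN2 exon 7 is included in transfected HEK293 cells. Compound exposure lasted 30-36 h at 37C, with 4.5 mM final sodium butyrate as control, followed by a ONE-Glo read.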
An asterisk follows results filed as active; u = inconclusive; x = no result given; [ ] = remark or other dose. Unless noted, the call rests on the fitted dose curve; in most records, active means well fitted curve in the direction sought with a large enough effect; inconclusive means small, poorly fitted or top-dose-only effect, or another doubt; inactive means no such curve, though single readings can be large; an effect the other way counts as inactive or inconclusive. Potency means the concentration at half of the fitted maximal effect.

SMILES	aGlu spleen mod	GAA glycogen	KDM4E inh	GAA inhib	GLA spleen mod	ALDH1A1 inh	SMN2 splice enh
CN1CCN(C(=O)C2(NC(=O)Nc3ccccc3Cl)CCCCC2)CC1	-2%	4%	3%	-2%	-4%	6%	-4%
Cc1ccc(/C=N/n2c(COc3ccccc3)n[nH]c2=S)s1	-13%	-8%	-2%	-3%	2%	u	-16%
O=C(Nc1nnc(CCN2CCOCC2)s1)c1ccccc1	3%	22%	-4%	-13%	4%	-7%	8%
CCN(CC)c1cc(NCCO)c([N+](=O)[O-])c2nonc12	-2%	1%	2%	u	3%	-20%	x
CC1=C(C(=O)OC2CCCCC2)C(c2cccs2)n2c(nc3ccccc32)N1 (stereo unspecified)	0%	3%	u	-3%	1%	-16%	-9%
Cc1ccc(C)c(NC(=O)CSc2nc3c(c(=O)n2C)SC(C)C3)c1 (stereo unspecified)	-13%	6%	0%	0%	-3%	-8%	-38%[inhibitor]
Cc1ccc2oc(=O)c3cc(C(=O)NCCN4CCc5ccccc5C4)sc3c2c1	-1%	14%	-10%	1%[15.4 µM]	0%	28µM*	-35%[inhibitor]
O=C(O)Cc1c(-c2ccccc2Cl)c2cc(Br)ccc2[nH]c1=O	5%	-2%	-6%	x	17%	x	x
C=CCn1c(CCNC(=O)c2ccc(Cl)c(Cl)c2)nnc1SCCOc1ccc(OC)cc1	-8%	-13%	-1%	-2%	2%	-8%	-38%[inhibitor]
Cc1cc(NC(=O)c2cc3ccccc3o2)cc(C)c1OCC(=O)N1CCOCC1	u	5%	-4%	-1%	-5%	-13%	-4%
CCSCc1nnc(SCC(=O)Nc2nc3ccccc3s2)n1C	6%	-5%	2%	1%	15%	6%	-10%
CN(C)CCN(C(=O)/C=C/c1cccs1)c1nc2c(F)cc(F)cc2s1	-13%	0%	u	6%	3%	u	-24%
CC1(C)Cc2c(c(-c3ccco3)[nH]c(=O)c2C#N)CO1	1%	4%	2%	4%	1%	u	4%
O=C(NCCCO)c1nnc(Cc2c(F)cccc2Cl)o1	-3%	6%	0%	2%	0%	3%	13%
CN(C)c1nc(Nn2cnnc2)nc(N(C)C)n1	3%	1%	2%	x	-10%	x	x
O=C(CSC1=NCCS1)N1CCc2ccccc21	1%	4%	-1%	-6%	-2%	-7%	u
CCCS(=O)(=O)N1CCC(C(=O)NCCCN(CC)c2cccc(C)c2)CC1	-25%	-7%	1%	4%	-2%	3%	-1%
CCNc1ccc(S(N)(=O)=O)cc1[N+](=O)[O-]	5%	1%	1%	-6%	8%	-13%	4%[1.84 µM]
O=C(O)COc1ccc(/C=N/NC(=O)C2CCCN2S(=O)(=O)c2ccc(Cl)cc2)cc1 (stereo unspecified)	-4%	7%	-10%	1%	5%	-15%	-17%
Cc1nn(C)c(C)c1CN(C)C(=O)C1c2ccccc2Oc2ccccc21	3%	2%	u	1%	5%	7%	2%
CCCCCc1nc2c(c(=O)c3ccccc3n2C)c(=O)n1Cc1ccc(OC)cc1	0%	-10%	-1%	x	8%	x	x
O=C(CSc1ncn[nH]1)Nc1c(F)cc(F)cc1Br	-7%	-2%	1%	-3%	-5%	12%	1%
Clc1ccc(OCc2nc(-c3ccccn3)n[nH]2)cc1	-7%	10%	3%	5%	-3%	-2%	-60%[inhibitor]
S=C(Nc1ccc(Cl)cc1Cl)N1CCCCC1	2%	-5%	7%	13%	1%	-8%	30%
O=C(CC1C(=O)NCCN1Cc1ccc(Cl)c(F)c1)NCCc1cccnc1 (stereo unspecified)	1%	6%	1%	x	-4%	x	x

Ordered by number of heavy atoms (low to high): some entries from above.
SMILES	aGlu spleen mod	GAA glycogen	KDM4E inh	GAA inhib	GLA spleen mod	ALDH1A1 inh	SMN2 splice enh
CCNc1ccc(S(N)(=O)=O)cc1[N+](=O)[O-]	5%	1%	1%	-6%	8%	-13%	4%[1.84 µM]
S=C(Nc1ccc(Cl)cc1Cl)N1CCCCC1	2%	-5%	7%	13%	1%	-8%	30%
CN(C)c1nc(Nn2cnnc2)nc(N(C)C)n1	3%	1%	2%	x	-10%	x	x
O=C(CSc1ncn[nH]1)Nc1c(F)cc(F)cc1Br	-7%	-2%	1%	-3%	-5%	12%	1%
Clc1ccc(OCc2nc(-c3ccccn3)n[nH]2)cc1	-7%	10%	3%	5%	-3%	-2%	-60%[inhibitor]
O=C(NCCCO)c1nnc(Cc2c(F)cccc2Cl)o1	-3%	6%	0%	2%	0%	3%	13%
O=C(Nc1nnc(CCN2CCOCC2)s1)c1ccccc1	3%	22%	-4%	-13%	4%	-7%	8%
O=C(O)Cc1c(-c2ccccc2Cl)c2cc(Br)ccc2[nH]c1=O	5%	-2%	-6%	x	17%	x	x
CCSCc1nnc(SCC(=O)Nc2nc3ccccc3s2)n1C	6%	-5%	2%	1%	15%	6%	-10%
Cc1ccc(C)c(NC(=O)CSc2nc3c(c(=O)n2C)SC(C)C3)c1 (stereo unspecified)	-13%	6%	0%	0%	-3%	-8%	-38%[inhibitor]
CN1CCN(C(=O)C2(NC(=O)Nc3ccccc3Cl)CCCCC2)CC1	-2%	4%	3%	-2%	-4%	6%	-4%
Cc1nn(C)c(C)c1CN(C)C(=O)C1c2ccccc2Oc2ccccc21	3%	2%	u	1%	5%	7%	2%
CC1=C(C(=O)OC2CCCCC2)C(c2cccs2)n2c(nc3ccccc32)N1 (stereo unspecified)	0%	3%	u	-3%	1%	-16%	-9%
Cc1cc(NC(=O)c2cc3ccccc3o2)cc(C)c1OCC(=O)N1CCOCC1	u	5%	-4%	-1%	-5%	-13%	-4%
O=C(O)COc1ccc(/C=N/NC(=O)C2CCCN2S(=O)(=O)c2ccc(Cl)cc2)cc1 (stereo unspecified)	-4%	7%	-10%	1%	5%	-15%	-17%
C=CCn1c(CCNC(=O)c2ccc(Cl)c(Cl)c2)nnc1SCCOc1ccc(OC)cc1	-8%	-13%	-1%	-2%	2%	-8%	-38%[inhibitor]

(cont.)
SMILES	aGlu spleen mod	GAA glycogen	KDM4E inh	GAA inhib	GLA spleen mod	ALDH1A1 inh	SMN2 splice enh
CSc1ccc(CNc2ccccn2)cc1	4%	1%	-1%	2%	-5%	3%	12%
CC(=O)N1CCc2cc(C(=O)CN3CCC(C)CC3)ccc21	-1%	-6%	-6%	-4%[15.4 µM]	-8%	20µM*	-1%
COc1ccccc1NC(=O)NC1(C(=O)N2CCC(O)CC2)CCCCC1	1%	-10%	4%	-4%	-5%	3%	22%
Cc1ccccc1-c1noc(CCC(=O)NCC2CCCO2)n1 (stereo unspecified)	-4%	1%	-23%	-6%	-1%	2%	-10%
Cc1ccc2ncccc2c1NS(=O)(=O)c1ccccc1	6%	0%	-21%	-4%	3%	32µM*	-33%[inhibitor]
COc1ccc2c(OC)cc(=O)n(C)c2c1	1%	7%	-11%	-7%	-2%	-9%	x
CCOC(=O)C1CCN(C(=O)C2(NC(=O)Nc3ccccc3Cl)CCCCC2)CC1	2%	8%	7%	-7%	4%	2%	u
S=c1[nH]nc(COc2ccccc2)n1/N=C/c1cccs1	0%	-29%	-7%	-3%	2%	-1%	-13%
Cc1cc(/N=C/C=C2\N(C)c3ccccc3C2(C)C)n(CCC#N)n1	-11%	-4%	3%	-11%	-10%	8%	-19%
COC(=O)c1[nH]c2ccc(Cl)cc2c1NC(=O)CN1CCc2cc(OC)c(OC)cc2C1	-9%	-9%	u	-4%	1%	u	-2%

Entries of single compounds from above. Values in the order: aGlu spleen mod, GAA glycogen, KDM4E inh, GAA inhib, GLA spleen mod, ALDH1A1 inh, SMN2 splice enh
COC(=O)c1[nH]c2ccc(Cl)cc2c1NC(=O)CN1CCc2cc(OC)c(OC)cc2C1 as listed: -9%, -9%, u, -4%, 1%, u, -2%
Cc1ccc2oc(=O)c3cc(C(=O)NCCN4CCc5ccccc5C4)sc3c2c1 as listed: -1%, 14%, -10%, 1%[15.4 µM], 0%, 28µM*, -35%[inhibitor]

A portion of the library; rates above refer to the full screens.
